Ecoli growth: E. coli growth inhibition, primary screen, OD600; OD600 absorbance (test concentration not listed); 330,000 compounds, 0.21% hits; Escherichia coli growth, 23 h; active compounds read low;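 active = OD600 absorbance below the run mean of sample wells minus 3.6 SD, in any replicate, cut at about 0.56 in these data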;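 also: stock transfer was 300 nL into about 60 µL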
rRNA inh HTS: reduced GFP signal of wild-type E. coli, primary screen, bacterial rRNA inhibitor project, GFP/RFP fluorescence, OD600, single point; E. coli WT GFP vs humanized-ribosome RFP mutants, 24 h; active compounds read low; DMSO median 0, no signal -100; GFP signal change (wild-type ribosome), % (concentration not given with the values); 350,000 compounds, 1.6% hits; AID 720706, 2013;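 active = significant combined selectivity score with lowered wild-type GFP, culture density cut under 30%, mutant RFP and density less affected; inactive = any of these conditions unmet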; also: one replicate is shown; some compounds called inactive have numbers as strong as hits
ALR H2O2 inh: inhibitors of human ALR sulfhydryl oxidase, primary screen, biochemical, H2O2 detection, HRP-luminol luminescence, single point; purified ALR, DTT oxidation; inhibition, % (no concentration beside the values); 290,000 compounds, 3.8% hits;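 active = mean and each replicate at 75% or more; inconclusive = only one of the two met; inactive = neither met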;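 also: stock transfer was 7.5 nL into about 7.5 µL; 0% = neutral wells and 100% = wells with inactivated enzyme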
Target sequence (P55789 whole entry, looked up): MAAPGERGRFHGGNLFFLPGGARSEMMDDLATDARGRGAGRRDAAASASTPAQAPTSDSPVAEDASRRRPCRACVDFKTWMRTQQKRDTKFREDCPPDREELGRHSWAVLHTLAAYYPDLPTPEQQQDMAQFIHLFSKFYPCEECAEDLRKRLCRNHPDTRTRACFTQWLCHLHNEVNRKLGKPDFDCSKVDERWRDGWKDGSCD
MLL AF4-AF9 inh: inhibitors of AF4 peptide binding to AF9, primary screen, biochemical, AlphaScreen, biotin-AF4 peptide, FLAG-AF9, single point | Protein AF-9 (Homo sapiens), P42568 | 350,000 compounds, 0.47% hits | inhibition, % at 10 µM;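 active = every replicate reaching a set inhibition limit, whatever the replicate mean, cut at about 25% in these data; inconclusive = mean inhibition reaches that limit but some replicates miss it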;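 also: 0% = plate neutral control median and 100% = total signal loss; the record names both 10 and 1 µM as test concentration; the first replicate is given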
Target sequence (P42568 whole entry, looked up): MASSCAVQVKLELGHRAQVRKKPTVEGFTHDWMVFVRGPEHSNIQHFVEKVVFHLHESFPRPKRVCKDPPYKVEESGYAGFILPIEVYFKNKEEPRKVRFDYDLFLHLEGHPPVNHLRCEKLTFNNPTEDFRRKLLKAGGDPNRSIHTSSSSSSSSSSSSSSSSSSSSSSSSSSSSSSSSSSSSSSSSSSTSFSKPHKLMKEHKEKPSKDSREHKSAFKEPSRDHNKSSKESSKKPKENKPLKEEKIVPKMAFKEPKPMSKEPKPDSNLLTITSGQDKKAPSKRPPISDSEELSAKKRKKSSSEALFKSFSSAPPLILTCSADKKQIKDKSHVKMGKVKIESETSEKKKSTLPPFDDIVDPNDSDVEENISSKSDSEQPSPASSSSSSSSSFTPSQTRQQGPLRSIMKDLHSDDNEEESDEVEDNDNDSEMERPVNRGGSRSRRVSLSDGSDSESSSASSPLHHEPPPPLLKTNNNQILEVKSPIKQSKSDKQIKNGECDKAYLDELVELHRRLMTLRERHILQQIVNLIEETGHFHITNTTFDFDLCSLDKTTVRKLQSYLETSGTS
Vif TR-FRET: inhibitors of Vif binding to APOBEC3G peptide, primary screen, biochemical, TR-FRET, GST-Vif 1-94, biotin-A3G peptide, dose response retest (AID 1117319). Virion infectivity factor (Human immunodeficiency virus type 1 group M subtype B (isolate …. TR-FRET GST-Vif / biotin-A3G peptide binding; higher % means a stronger effect; test concentration not given here; strong numbers were not always called active. one-dose inhibition, %; IC50 in µM for titrated hits. 260,000 compounds, 0.57% hits;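 active = above the screen mean plus three standard deviations and confirmed in dose response; inconclusive = results disagree or hit not tested in dose response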;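 also: Vif residues 1-94 fused to GST binding biotinylated APOBEC3G peptide 110-148; 0% = full assay without inhibitor and 100% = GST in place of GST-Vif; retest series ran down from 100 µM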
HNF4A DNA FP: change in binding of human HNF4A to DNA, primary screen, biochemical, fluorescence polarization, FITC-DNA; Hepatocyte nuclear factor 4-alpha (Homo sapiens), P41235; 1 h; activity change, % at 10 µM; 360,000 compounds, 0.3% hits; in the data active = activity change above about 30%, passing the limit was not always enough;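 also: controls were the assay level and a saturating level of protein; the project sought stronger binding though the title names inhibitors; some compounds called inactive have numbers as strong as hits; positive values seem to mean higher polarization but the record does not say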
FGF22 binding: binders of human FGF22 protein, primary screen, FGF22 synaptogenesis inhibitor project, biophysical, thermal shift, single point; Fibroblast growth factor 22 (Homo sapiens), Q9HCT0; recombinant FGF22 thermal shift, SYPRO orange fluorescence; percent of sucrose octasulfate shift, DMSO zero; calls only at 9.99 µM; 340,000 compounds, 1.5% hits; AID 651658, 2012;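 active = melting point raised past a set limit in the mean and every replicate; inconclusive = no clear call; three in four hits are not shown here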
Target sequence (Q9HCT0 whole entry, looked up): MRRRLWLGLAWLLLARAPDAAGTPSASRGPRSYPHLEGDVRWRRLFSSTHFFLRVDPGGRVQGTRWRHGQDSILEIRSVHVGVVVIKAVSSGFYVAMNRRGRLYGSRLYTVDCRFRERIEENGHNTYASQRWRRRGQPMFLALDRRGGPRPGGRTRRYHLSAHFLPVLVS
rRNA inh HTS OD600: recorded beside rRNA inh HTS, whose call it bears; OD600 change, %; measured here: OD600 growth;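 optical density of the mix in the first replicate; 0 = DMSO median and -100 = no signal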
rRNA inh HTS RFP: second read-out of rRNA inh HTS, no call of its own (marks repeat the call); RFP signal change, %; measured here: RFP humanized mutant strains;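 first replicate; 0 = DMSO median and -100 = no signal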
* = called active by the depositor.

Screening CCCC(NC(=S)NCC1CCCO1)C12CC3CC(CC(C3)C1)C2 (stereo not drawn) returned Ecoli growth 0.72, rRNA inh HTS -15, ALR H2O2 inh -3, MLL AF4-AF9 inh 4.4, Vif TR-FRET -1%, HNF4A DNA FP -0.5, FGF22 binding inactive, rRNA inh HTS OD600 -29 and rRNA inh HTS RFP 13.
`C[C@@H](O)C#Cc1cnc2c(c1)C(=O)N([C@@H](C)CO)C[C@H](C)[C@@H](CN(C)CC1CCCCC1)O2` gave rRNA inh HTS 6, MLL AF4-AF9 inh 1.0, FGF22 binding inactive, rRNA inh HTS OD600 11 and rRNA inh HTS RFP 0.2.
COc1ccc(C2(C(=O)Nc3ccc(C(=O)O)cc3)CCOCC2)cc1 was read as Ecoli growth 0.71, Vif TR-FRET 7% and HNF4A DNA FP -1.3.
For O=C(NCc1ccco1)c1cccc2c1C(=O)c1ccc(N3CCC(N4CCCCC4)CC3)cc1S2(=O)=O the results were rRNA inh HTS 15, MLL AF4-AF9 inh 0.3, Vif TR-FRET 1%, HNF4A DNA FP 53, FGF22 binding inactive, rRNA inh HTS OD600 14 and rRNA inh HTS RFP 2.9.
For C/C=C/C(=O)OCC(=O)Nc1nc2ccc(C)cc2s1 the results were ALR H2O2 inh 5, Vif TR-FRET -4% and HNF4A DNA FP -0.7.
N#C[C@@H]1[C@H](c2ccc(-c3ccccc3F)cc2)[C@H](CO)N1C(=O)Cc1ccccc1 was read as rRNA inh HTS -15, MLL AF4-AF9 inh -2.0, FGF22 binding inactive, rRNA inh HTS OD600 -51 and rRNA inh HTS RFP -0.2.
`c1ccc(-c2csc3ncnc(N4CCN(Cc5ccc6c(c5)OCO6)CC4)c23)cc1` gave Ecoli growth 0.68, rRNA inh HTS -17, ALR H2O2 inh -9, MLL AF4-AF9 inh 13, Vif TR-FRET -1%, HNF4A DNA FP 4.6, FGF22 binding inactive, rRNA inh HTS OD600 -51 and rRNA inh HTS RFP -6.8.
CCCCNC(=O)c1sc2ncnc(N3CCc4ccccc4C3)c2c1C was read as Ecoli growth 0.72, rRNA inh HTS 0, ALR H2O2 inh -9, MLL AF4-AF9 inh -29, Vif TR-FRET -3%, HNF4A DNA FP 3.2, FGF22 binding inactive, rRNA inh HTS OD600 3 and rRNA inh HTS RFP 7.8.
Cc1cc(Cl)ccc1NC(=S)N1CCOCC1 was read as Ecoli growth 0.66, rRNA inh HTS -1, ALR H2O2 inh -2, MLL AF4-AF9 inh -0.2, Vif TR-FRET -2%, HNF4A DNA FP 2.0, FGF22 binding inactive, rRNA inh HTS OD600 1 and rRNA inh HTS RFP -4.5.
Cc1ccnc2nc(C(=O)OCC(=O)Nc3ccc([N+](=O)[O-])cc3Br)nn12 was read as Ecoli growth 0.65, rRNA inh HTS 11, MLL AF4-AF9 inh inconclusive, Vif TR-FRET -13%, HNF4A DNA FP -2.7, FGF22 binding inactive, rRNA inh HTS OD600 17 and rRNA inh HTS RFP -1.7.
Screening CCNC(COC(=O)c1ccc([N+](=O)[O-])cc1)C1CCCCC1 (stereo not drawn) returned rRNA inh HTS -5, MLL AF4-AF9 inh -4.0, Vif TR-FRET 8%, HNF4A DNA FP -0.8, FGF22 binding inactive, rRNA inh HTS OD600 19 and rRNA inh HTS RFP -1.8.
`COc1cc(SC)ccc1C(=O)Nc1cc(C)ccn1` gave Ecoli growth 0.66, ALR H2O2 inh 18, Vif TR-FRET -7% and HNF4A DNA FP 3.3.
For O=S(=O)(Nc1ccc(S(=O)(=O)Nc2nccs2)cc1)c1ccc(Br)cc1 the results were Ecoli growth 0.69, rRNA inh HTS -16, ALR H2O2 inh -1, MLL AF4-AF9 inh -2.3, HNF4A DNA FP 0.2, rRNA inh HTS OD600 -7 and rRNA inh HTS RFP -12.
For CCc1nc2ccc(C(=O)NCc3ccccc3OC)cn2c1N(C)C(=O)Cc1ccccc1 the results were rRNA inh HTS -8, MLL AF4-AF9 inh -0.6, HNF4A DNA FP 1.9, FGF22 binding inactive, rRNA inh HTS OD600 -7 and rRNA inh HTS RFP -0.9.
O=C(NCc1cccnc1)c1ccc(Br)o1 was read as Ecoli growth 0.64, rRNA inh HTS 4, MLL AF4-AF9 inh -0.8, Vif TR-FRET -9%, HNF4A DNA FP 2.7, rRNA inh HTS OD600 5 and rRNA inh HTS RFP 0.7.
CSc1cccc(NC(=S)NCCCN2CCN(c3ccc(F)cc3)CC2)c1 was read as Ecoli growth 0.71, rRNA inh HTS 4, MLL AF4-AF9 inh 0.0, Vif TR-FRET -9%, HNF4A DNA FP -3.9, FGF22 binding inactive, rRNA inh HTS OD600 3 and rRNA inh HTS RFP -0.1.
Screening Cc1ccnc(NC(=S)NC(=O)c2cccs2)c1 returned Ecoli growth 0.66, ALR H2O2 inh 16, MLL AF4-AF9 inh 2.1, Vif TR-FRET 24%, HNF4A DNA FP -0.7 and FGF22 binding inactive.
`CCOC(=O)CSc1snnc1C` gave Ecoli growth 0.68, ALR H2O2 inh -1, Vif TR-FRET 2% and HNF4A DNA FP -2.9.
For O=C(C1CCCC1)N1CCC(CC2CC(c3cccc(Br)c3)=NO2)(C(=O)NCC2CCCCC2)CC1 (stereo not drawn) the results were Ecoli growth 0.72, rRNA inh HTS -10, ALR H2O2 inh -3, MLL AF4-AF9 inh 1.8, HNF4A DNA FP -2.8, FGF22 binding inactive, rRNA inh HTS OD600 -20 and rRNA inh HTS RFP -8.8.
`CC=Cc1ccc2n(c1=O)C[C@H]1[C@H](CO)[C@@H](C(=O)NCC3CC3)N(Cc3ccccc3)[C@@H]21` (mixture of isomers) gave rRNA inh HTS 1, MLL AF4-AF9 inh -1.2, FGF22 binding inactive, rRNA inh HTS OD600 -1 and rRNA inh HTS RFP -1.1.
`COc1cc(CC(=O)OCC(=O)Nc2ccc3c(c2)OCCO3)cc(OC)c1OC` gave Ecoli growth 0.72, rRNA inh HTS 9, ALR H2O2 inh 3, MLL AF4-AF9 inh -0.7, Vif TR-FRET 19%, HNF4A DNA FP -1.8, FGF22 binding inactive, rRNA inh HTS OD600 -1 and rRNA inh HTS RFP -1.4.
Screening O=C1C=C(/C=C/c2ccccc2)C[C@@H](c2ccc3c(c2)OCO3)C1 returned rRNA inh HTS -18, ALR H2O2 inh -1, MLL AF4-AF9 inh 6.3, HNF4A DNA FP 0.1, FGF22 binding inactive, rRNA inh HTS OD600 -34 and rRNA inh HTS RFP -9.8.
For CC(=O)c1cccc(N(CC(=O)NCCc2ccccc2)C(=O)c2csnn2)c1 the results were Ecoli growth 0.53*, rRNA inh HTS 0, ALR H2O2 inh 1, MLL AF4-AF9 inh -11, HNF4A DNA FP 1.0, FGF22 binding inactive, rRNA inh HTS OD600 9 and rRNA inh HTS RFP -0.6.
Screening C=CCc1ccc(OCCOCCOc2ccc(C)cc2[N+](=O)[O-])c(OC)c1 returned Ecoli growth 0.7, ALR H2O2 inh -16, Vif TR-FRET -5% and HNF4A DNA FP -1.3.
`O=C(C1CCCN(S(=O)(=O)c2cc(Cl)ccc2Cl)C1)N1CCCC1` (stereo not drawn) gave Ecoli growth 0.71, rRNA inh HTS -1, ALR H2O2 inh 0, MLL AF4-AF9 inh -7.4, HNF4A DNA FP 3.7, FGF22 binding inactive, rRNA inh HTS OD600 -9 and rRNA inh HTS RFP 1.6.
Screening Cc1ccc(NC(=O)CSc2nc3ccccc3c(=O)[nH]2)cc1[N+](=O)[O-] returned Ecoli growth 0.71, rRNA inh HTS 7, ALR H2O2 inh -12, MLL AF4-AF9 inh 0.4, Vif TR-FRET -12%, HNF4A DNA FP -1.6, FGF22 binding inactive, rRNA inh HTS OD600 10 and rRNA inh HTS RFP 2.5.
Screening Cc1cccc(N2CCN(C(=O)Cc3cn(C)c4ccccc34)CC2)c1C returned Ecoli growth 0.66, ALR H2O2 inh -3, Vif TR-FRET 0% and HNF4A DNA FP -4.6.
O/C(=C\c1nc2ccccc2[nH]1)c1cccs1 was read as rRNA inh HTS 4, ALR H2O2 inh 6, MLL AF4-AF9 inh 0.0, HNF4A DNA FP -2.7, FGF22 binding inactive, rRNA inh HTS OD600 2 and rRNA inh HTS RFP 1.6.
For O=C1c2ccc3c4c(ccc(c24)C(=O)N1NC(=O)C(F)(F)F)CC3 the results were Ecoli growth 0.71, ALR H2O2 inh -12, Vif TR-FRET 29% and HNF4A DNA FP -10.
Screening CCCCSc1nc2c(c(C(F)(F)F)c1C#N)CCC2 returned Ecoli growth 0.71, rRNA inh HTS 0, ALR H2O2 inh 0, Vif TR-FRET 7%, HNF4A DNA FP 1.7, rRNA inh HTS OD600 -2 and rRNA inh HTS RFP -3.4.
For CC(C)NC(=O)N(C)C[C@@H]1OCCCC[C@@H](C)Oc2ccc(NS(=O)(=O)c3ccccc3)cc2C(=O)N([C@@H](C)CO)C[C@@H]1C the results were rRNA inh HTS 3, MLL AF4-AF9 inh -1.3, FGF22 binding inactive, rRNA inh HTS OD600 0 and rRNA inh HTS RFP 2.9.
Screening O=C(O)CCCc1c(-[n+]2ccccc2)[nH]c2ccccc12 returned Ecoli growth 0.62, rRNA inh HTS 12, ALR H2O2 inh 20, MLL AF4-AF9 inh -1.7, HNF4A DNA FP 5.7, FGF22 binding inactive, rRNA inh HTS OD600 6 and rRNA inh HTS RFP -6.0.
CCOc1ccc(C(=O)Nc2cc(C)on2)cc1OCC was read as Ecoli growth 0.7, Vif TR-FRET 2% and HNF4A DNA FP 2.0.
For COc1ccccc1C#Cc1cnc2c(c1)C(=O)N([C@H](C)CO)C[C@@H](C)[C@@H](CN(C)C(=O)CC1CC1)O2 the results were rRNA inh HTS 7, MLL AF4-AF9 inh -3.6, FGF22 binding inactive, rRNA inh HTS OD600 15 and rRNA inh HTS RFP -0.8.
`NS(=O)(=O)c1ccc2nc(-c3ccccc3)c(-c3ccccc3)nc2c1` gave Ecoli growth 0.66, rRNA inh HTS 1, ALR H2O2 inh 2, MLL AF4-AF9 inh 1.6, HNF4A DNA FP 0.9, FGF22 binding inactive, rRNA inh HTS OD600 11 and rRNA inh HTS RFP -1.3.
For CCOC(=O)c1sc(NC(=O)CCN2CCN(CC)CC2)c(C(=O)OCC)c1C the results were Ecoli growth 0.66, rRNA inh HTS -7, ALR H2O2 inh 96*, MLL AF4-AF9 inh 2.4, HNF4A DNA FP -0.5, FGF22 binding inactive, rRNA inh HTS OD600 0 and rRNA inh HTS RFP 2.5.
For O=C(Nc1ccccc1-c1ccccc1)C1CCCCC1 the results were Ecoli growth 0.72, rRNA inh HTS 4, ALR H2O2 inh -3, MLL AF4-AF9 inh 3.5, Vif TR-FRET 14%, HNF4A DNA FP -2.8, FGF22 binding inactive, rRNA inh HTS OD600 6 and rRNA inh HTS RFP -6.0.

Pulled one by one from the entries so far:
`c1ccc(-c2csc3ncnc(N4CCN(Cc5ccc6c(c5)OCO6)CC4)c23)cc1` gave Ecoli growth 0.68, rRNA inh HTS -17, ALR H2O2 inh -9, MLL AF4-AF9 inh 13, Vif TR-FRET -1%, HNF4A DNA FP 4.6, FGF22 binding inactive, rRNA inh HTS OD600 -51 and rRNA inh HTS RFP -6.8.
Screening O=C(O)CCCc1c(-[n+]2ccccc2)[nH]c2ccccc12 returned Ecoli growth 0.62, rRNA inh HTS 12, ALR H2O2 inh 20, MLL AF4-AF9 inh -1.7, HNF4A DNA FP 5.7, FGF22 binding inactive, rRNA inh HTS OD600 6 and rRNA inh HTS RFP -6.0.

An excerpt. The share of hits here may be higher or lower than overall.
